2A StopGo: High Throughput Screening for Foot and Mouth Disease Virus Antivirals. human cells with a luciferase reporter of 2A StopGo recoding; control for the full effect not named in the record. Potency, µM (series often up to 57.9 µM), inactives show at the highest dose signal change, negative = less light. hit rate 1.2% among 410,000. AID 1159524, 2015; active = well fitted falling curve with a large enough effect; inconclusive = small, poorly fitted or top-dose-only effect; inactive = no such curve, though single readings can be large or run the other way; tested in HEK293T cells; further: on the % scale 0 is the no-effect control and ±100 the full control effect; nearly all actives have a fitted effect of over 45% in size; luciferase light after 4 h
SARS PLP yeast: qHTS of Yeast-based Assay for SARS-CoV PLP. hit rate 0.19% among 330,000. S. cerevisiae expressing SARS-CoV PLpro, growth rescue; control for the full effect not named in the record. Potency, µM (titrated, usually from 32.9 µM), for the others: at the highest dose activity, positive = growth rescue; active means well fitted rising curve with a large enough effect; inconclusive means small, poorly fitted or top-dose-only effect; inactive means no such curve, though single readings can be large or run the other way; further: 0% is about no effect; nearly all actives have a fitted effect of over 55% in size; growth read by luminescence after 48 h
Cruzain inh Det: qHTS Assay for Promiscuous and Specific Inhibitors of Cruzain (with detergent); Cruzipain (Trypanosoma cruzi), P25779; purified cruzain, Z-FR-AMC fluorescence, 0.01% Triton; Potency, µM, without a hit: max response, negative = inhibition, usual class: inhibitors; hit rate 0.43% among 200,000;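 further: plate controls were neutral wells for no effect and buffer without enzyme for full effect; nearly all actives have a fitted effect of over 40% in size; top concentration of the series not given in the record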
Target sequence (P25779 123-467 limits assumed): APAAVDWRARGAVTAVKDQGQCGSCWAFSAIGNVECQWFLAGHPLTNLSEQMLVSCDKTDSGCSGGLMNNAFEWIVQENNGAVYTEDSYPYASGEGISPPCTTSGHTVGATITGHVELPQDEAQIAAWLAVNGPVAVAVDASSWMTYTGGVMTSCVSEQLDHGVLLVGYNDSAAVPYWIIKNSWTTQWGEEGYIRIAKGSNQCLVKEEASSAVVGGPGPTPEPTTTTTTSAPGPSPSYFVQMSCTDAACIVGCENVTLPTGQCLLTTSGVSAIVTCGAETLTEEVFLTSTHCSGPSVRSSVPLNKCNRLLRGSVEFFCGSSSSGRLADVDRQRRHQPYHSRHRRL
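15 min RT preincubation of 1.5 nM cruzain with compound, then 2 uM Z-FR-AMC added; kinetic AMC fluorescence, 60 s delta. Triton X-100 0.01%, pH 5.5.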
Cruzain noTriton: qHTS Assay for Promiscuous and Specific Inhibitors of Cruzain (without detergent) | Potency, µM, for the others: max response, negative = inhibition, most hits filed as inhibitors | Cruzipain (Trypanosoma cruzi), P25779 | purified cruzain, Z-FR-AMC fluorescence, no detergent | hit rate 2.3% among 200,000;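 further: plate controls were enzyme without inhibitor for no effect and buffer without enzyme for full effect; nearly all actives have a fitted effect of over 40% in size; top concentration of the series not given in the record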
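Purified cruzain at 1.5 nM, pre-incubated 15 min with compound at room temperature in 100 mM sodium acetate pH 5.5, 5 mM DTT, 0.00005% Triton X-100. Reaction started with 2 uM Z-FR-AMC; AMC fluorescence increase over 60 s gives rate.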
RE007 growth inh: qHTS Assay for Inhibitors of the HIV-1 protein Vpr; Potency, µM (highest dose often 92.2 µM), for the others: at the highest dose activity change, negative = less growth; S. pombe RE007 Vpr strain, BacTiter-Glo ATP luminescence, 24 h; control for the full effect not named in the record; AID 651644, 2012; hit rate 0.21% among 360,000; active = well fitted falling curve with a large enough effect; inconclusive = small, poorly fitted or top-dose-only effect; inactive = no such curve, though single readings can be large or run the other way;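 further: on the % scale 0 is the no-effect control and ±100 the full control effect; nearly all actives have a fitted effect of over 50% in size; the assay follows cell death caused by Vpr and the record does not say whether a fall means rescue or toxicity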
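Fission yeast RE007 carrying one integrated HIV-1 vpr copy, seeded at OD 0.01 in PMG+AL medium with 23 nL pinned compound. Grown 24 h at 30 degrees; viability read by BacTiter-Glo luminescence after 5 min.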
Lassa entry inh: qHTS for Inhibitors of binding or entry into cells for Lassa Virus; Lassa virus pseudotype entry inhibition, cell reporter; control for the full effect not named in the record; Potency, µM (titrated, usually from 37.9 µM), inactives show at the highest dose activity change, negative = inhibition, hits mostly inhibitors; hit rate 1.2% among 300,000; AID 540256, 2011; active means well fitted inhibition curve with a large enough effect; inconclusive means small, poorly fitted or top-dose-only effect, or effect the other way; inactive means flat fitted curve, though single readings scatter; tested in HEK293 cells; further: on the % scale 0 is the no-effect control and ±100 the full control effect; nearly all actives have a fitted effect of over 50% in size; luciferase read-out
Marburg entry inh: qHTS for inhibitors of binding or entry into cells for Marburg Virus; hit rate 1.8% among 300,000; Potency, µM (top dose mostly 37.8 µM), for the others: at the highest dose activity change, negative = inhibition, most hits filed as inhibitors; Marburg virus pseudotyped entry inhibition, cell reporter; control for the full effect not named in the record; about a third of the inactives were read at about 46 µM; active = well fitted inhibition curve with a large enough effect; inconclusive = small, poorly fitted or top-dose-only effect, or effect the other way; inactive = flat fitted curve, though single readings scatter; tested in HEK293 cells; about a fifth of its hits are not listed in these tables; further: on the % scale 0 is the no-effect control and ±100 the full control effect; luciferase read-out
NS1 inh: qHTS Assay for Inhibitors of Influenza NS1 Protein Function; AID 2326, 2010; hit rate 0.4% among 270,000; Potency, µM (highest dose often 46.1 µM), without a hit: at the highest dose activity, positive = more growth; S. cerevisiae slowed by influenza A NS1, growth recovery by OD600; active means well fitted rising curve with a large enough effect; inconclusive means small, poorly fitted or top-dose-only effect; inactive means no such curve, though single readings can be large or run the other way; further: nearly all actives have a fitted effect of over 50% in size
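In this qHTS, NS1 from influenza A is expressed in budding yeast, where it slows growth. Cells are switched from glucose to 2% galactose medium (pH 6.0, -URA), treated with compound, and growth recovery is read at OD600.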
The depositor's hits bear a star; u = inconclusive; x = no result given; & = joins results of further samples; [ ] = dose if it differs, or a comment. Unless noted, the call rests on the fitted dose curve; in most records, active means well fitted curve in the direction sought with a large enough effect; inconclusive means small, poorly fitted or top-dose-only effect, or another doubt; inactive means no such curve, though single readings can be large; an effect the other way counts as inactive or inconclusive. Potency means the concentration at half of the fitted maximal effect.

SMILES	2A StopGo	SARS PLP yeast	Cruzain inh Det	Cruzain noTriton	RE007 growth inh	Lassa entry inh	Marburg entry inh	NS1 inh
O=C(COC(=O)Cn1cnc2ccccc21)Nc1cccc2c1C(=O)c1ccccc1C2=O	-28%	16%	-5.4%	-2%	-3%	0%	x	2%
O=c1ccc2ccc(Oc3ccc([N+](=O)[O-])cc3Cl)cc2o1	9%	10%	x	x	5%	10%[46.1 µM]	u	x
CCOC(=O)CNC(=O)c1cc(-c2ccccn2)nc2c(C)c(Cl)ccc12	-16%	-1%	x	x	17%	-16%	5µM*	3%
CCc1nnc(NC(=O)CSc2ncnc3c2oc2ccccc23)s1	0%	4%	0.2%	-6%	2%	x	x	4%
COc1ccccc1/C=C/C=N/NC(=O)c1ccccn1	1%	-5%	x	x	-3%	u	u	x
CCn1c(SCc2cccc(C)c2)nnc1-c1ccccc1	17%	2%	-4.1%	0%	-8%	5%	u	-42%
Cc1ccc(S(=O)(=O)NCCCNC(=O)N2CCOCC2)cc1	-24%	1%	4.1%	3%	-6%[3.69 µM]	0%	u	u
CCOc1ncccc1C(=O)OCC(=O)c1cc(C)n(Cc2ccco2)c1C	14%	-3%	-7.2%	5%	-4%	u	u	-4%
Cn1cnc(Sc2ncnc3nc[nH]c23)c1[N+](=O)[O-]	u	1%	x	x	48%	x	x	4%
Cc1ccnc(NC(=O)C2CCC(CNc3c(N4CCCC4)c(=O)c3=O)CC2)c1 (stereo not given)	10%	6%	-0.7%	1%	-3%	x	1%	10%
CCOc1ncccc1C(=O)Nc1ccc(S(=O)(=O)Nc2nccs2)cc1	65%[activator]	3%	x	x	3%	6%	-21%[46.1 µM]	-9%
COc1cc(S(=O)(=O)NC(C)C)ccc1Cl	54%[activator]	1%	2.3%	-3%	3%	u	7%	5%
CN1CCN(S(=O)(=O)c2cccc(C(=O)Nc3cccc(S(N)(=O)=O)c3)c2)CC1	16%	0%	x	x	10%	-3%[46.1 µM]	10%[46.1 µM]	7%
COc1ccc(CNC(=O)c2ccc(NC(=O)CC3SC(N4CCCCC4)=NC3=O)cc2)cc1 (stereo not given)	1%	-2%	-3.2%	u	6%	9%	u	1%
O=C(COCC(=O)NCc1ccccc1)NCc1ccccc1	-15%	1%	x	x	0%	u	-13%[46.1 µM]	9%
O=C(Cc1ccccc1F)Nc1ccccc1-c1ccccc1	33%[activator]	0%	x	x	1%	x	14%[46.1 µM]	x
CCOc1ccccc1N(CC(=O)Nc1cccnc1)S(C)(=O)=O	5%	2%	2.2%	12%	1%	5%	18%	-4%
COc1ccc(N2CCN(C(=O)CCC(=O)N3CCOc4ccc(C)cc43)CC2)cc1	-23%	-8%	x	x	4%	x	x	-35%
O=C(CCCN1C(=O)c2cccnc2C1=O)Nc1ccc(F)cc1Cl	7%	1%	x	x	1%	1%[46.1 µM]	3%[46.1 µM]	-2%
COc1ccccc1NC(=O)c1ccc2nc(C)c(C)nc2c1	0%	-1%	x	x	-1%	x	x	-13%
Cc1onc(-c2ccccc2Cl)c1C(=O)NC(=S)Nc1ccc(C(C)(C)C)cc1	-10%	1%	x	x	-17%	x	x	20%
CC1CCN(c2c(NCC3CCC(C(=O)NCc4ccccc4Cl)CC3)c(=O)c2=O)CC1 (stereo not given)	-9%	-3%	-18%	-16%	2%	2%	17%	-18%
O=C(NCc1ccccc1Cl)c1nnc(Cc2cccc(F)c2)o1	7%	x	-10%	-14%	x	-23%[46.1 µM]	x	x
COc1cc(NC(=O)c2ccc(Cl)cc2Cl)ccc1NC(=O)c1cccs1	11%	0%	x	x	24%	14%	10%[46.1 µM]	-48%
CCOc1ccccc1-n1c(C)nc2cc(C(=O)O)ccc21	-24%&-10%	-2%	1.2%	-10%	2%	8%	24%&0%[46.1 µM]	x
Cc1ccc(C(=O)NCC(=O)OCC(=O)Nc2cc(S(=O)(=O)N3CCOCC3)ccc2C)cc1	-1%	4%	x	x	7%	u	-2%	x
COc1ccc(CN(C)CC(=O)Nc2ccc(SC(F)F)cc2)cc1OC	18µM*	0%	x	x	10%	u	u	x
CCCCN(c1ccccc1)c1ncnc2nc[nH]c12	-19%	-11%	-1.9%	-12%	-9%	-9%	-3%	-4%
COc1cc(SC)ccc1C(=O)Nc1nc(C)cc(C)n1	-5%	-2%	x	x	-1%	x	x	-21%
O=C(CN1C(=O)NC2(CCOc3ccccc32)C1=O)c1ccc(Br)cc1 (stereo not given)	-5%	-4%	x	x	-3%	x	x	16%
Cc1nnc(N2CCN(c3ccc(Cl)cc3)CC2)c2c1nnn2Cc1ccc(F)cc1	u	x	1.5%	-2%	x	23%[46.1 µM]	0%[46.1 µM]	x
O=C(O)Cn1cc(/C=N/NC(=O)c2cc3cc(Br)ccc3o2)c2ccccc21	2%	-2%	x	x	-22%	-6%	-27%[46.1 µM]	1%
Cc1ccc(Cn2cc3c(n2)-c2c(oc(C(=O)Nc4ccc(F)cc4F)c2C)CC3)cc1	-17%	x	-3.0%	-5%	x	29%[46.1 µM]	x	x
CC(=O)Nc1ccc(S(=O)(=O)N2CCc3ccccc3C2CC(=O)O)cc1 (stereo not given)	-11%	5%	x	x	-13%	-1%	4%[46.1 µM]	3%
O=C(CNC(=O)c1ccc(Br)cc1)c1ccc(Br)cc1	-11%	0%	x	x	3%	x	x	19%
CC1(C)CC(=O)c2cnc(NC(=O)C3CCCC3)nc2C1	23%	4%	8.5%	-5%	-12%	u	20%	3%
Cc1csc(CCc2nc(C)cs2)n1	8%	1%	5.2%	-8%	0%	-2%	5%	2%
CCOc1cc2c(cc1OCC)C(c1ccc(C(=O)O)cc1)NCC2 (stereo not given)	0%	2%	x	x	-10%	19%[46.1 µM]	15%[46.1 µM]	5%
O=C(CSc1ncccn1)Nc1ccc2c(c1)OCO2	18%	2%	x	x	-4%	u	14%[46.1 µM]	x
CC(C(=O)Nc1ccccc1)N(c1cccc(Cl)c1)S(C)(=O)=O (stereo not given)	-6%	1%	x	x	-10%	-16%	-21%[46.1 µM]	x
COc1cc(C2NC(=O)NC(C)=C2C(=O)Nc2cc(C)cc(C)c2)ccc1O (stereo not given)	4%	x	-2.5%	-1%	x	0%[46.1 µM]	-10%[46.1 µM]	x
COc1ccc(C2=NS(=O)(=O)N(C)C(C(=O)NCc3ccccn3)=C2)cc1OC	-20%	-5%	x	x	-3%	x	x	5%
CC1C(c2ccccc2)N(C)C(c2ccccc2)CC1(O)c1ccccc1 (stereo not given)	u	-1%	5.2%	5%	-2%	u	u	10%
O=C(Nc1ccc2c(c1)OCCO2)c1ccc(Br)o1	5%	-20%	0.7%	-2%	1%	u	u	-70%
O=C(Nc1ccc(NC(=S)NC(=O)c2cccs2)cc1)c1ccccc1	-14%	0%	-4.0%	14%	2%	5%	u	17%
O=C1NCC(O)=C1C=Nc1ccccc1O	-11%	-4%	x	x	5%	x	x	-34%
c1ccc(NC2=NCCCS2)cc1	20%	0%	x	x	-11%	x	x	5%
O=C(Cc1csc(-c2ccccc2)n1)NCc1cccs1	52%[activator]	-6%	x	x	10%	5%	4%[46.1 µM]	x
CSc1ccc(Cl)c(C(=O)Nc2ccc(Cl)cn2)c1	-2%	-1%	x	x	3%	-11%[46.1 µM]	u	-3%
Cc1cc(C(=O)NNC(=O)c2ccc(C)s2)c(C)o1	-11%	-4%	x	x	4%	24%	3%[46.1 µM]	x

The results go on:
SMILES	2A StopGo	SARS PLP yeast	Cruzain inh Det	Cruzain noTriton	RE007 growth inh	Lassa entry inh	Marburg entry inh	NS1 inh
NNS(=O)(=O)c1ccc2c(c1)Cc1cc(S(=O)(=O)NN)ccc1-2	-4%	0%	x	x	17%	-7%[46.1 µM]	13%[46.1 µM]	-3%
CCCC(=O)Nc1c2c(nn1-c1ccccc1)CSC2	-7%	-2%	x	x	7%	x	x	-2%
Cc1ccc(-c2cc(C(=O)Nc3cc([N+](=O)[O-])ccc3C)no2)cc1F	-18%	x	-4.0%	11%	x	-7%[46.1 µM]	1%[46.1 µM]	x
O=S(=O)(NCc1ccccc1)c1ccc2[nH]c3c(c2c1)CCCCC3	31%[activator]	x	-14%	u	x	-16%[46.1 µM]	x	x
CCN(CC)C(=O)COc1ccc(S(=O)(=O)N2CCCC2)cc1	6%	2%	x	x	8%	x	x	3%
CCN(CC)S(=O)(=O)c1cccc(C(=O)N/N=C/c2cccc(O)c2O)c1	-5%	u	3.0%	-2%	-17%	13µM*	u	5%
CCN(CC)C(=O)C1CCCN(C(=O)Nc2ccc(NC(=O)N3CCCC(C(=O)N(CC)CC)C3)cc2)C1 (stereo not given)	7%	15%	-1.4%	-2%	16%	u	0%	1%
Cc1ccc(Cl)cc1NC(=O)c1ccc(-c2nc(CSc3ccccc3)c(C)o2)cc1	u	x	-4.3%	u	x	u	x	x
CCCCOC(=O)C[N+](C)(C)CCOC1CC2CCC1(C)C2(C)C (stereo not given)	-28%	x	-3.4%	2%	7%	-5%[46.1 µM]	u	1%
CCOc1ccc2nc(NC(=O)CSc3nc4cccnc4n3C)sc2c1	-27%	0%	3.9%	u	-6%	u	u	-38%
COc1cc(NC(=O)CSc2nnc(-c3ccncc3)o2)cc(OC)c1OC	-14%	5%	x	x	16%	4%	-3%	7%
COc1ccc(S(=O)(=O)NCC(=O)N(CC(=O)NCC2CCCO2)c2cc(C)ccc2C)cc1 (stereo not given)	10%	15%	-0.6%	9%	2%	6%	2%&2%	3%
Oc1ccccc1C=NCCCCCCN=Cc1ccccc1O	-11%	0%	x	x	-4%	3%	19%[46.1 µM]	4%
